Tgondii IFNg: T. gondii growth inhibition with IFN-gamma, primary screen, cell-based; hit rate 3.8% among 69,000; AID 1259416, 2018; activity change, negative = inhibition, %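 (about 20 µM by stock and volumes)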; Toxoplasma gondii growth in IFN-gamma-treated host cells; stronger effect = lower value; reference of the scale not given here;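 active = below -70%; inconclusive = fit judged invalid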;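 note: host cells are HeLa cells infected with Toxoplasma gondii; parasite growth read as luciferase light; one replicate is shown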
* = called active by the depositor; i = inactive; ? = inconclusive; & = joins results of further samples. These rows are one share of the data (hit frequency here may not be typical).

| compound | Tgondii IFNg |
| --- | --- |
| O=C(N1CCc2onc(-c3ccccc3F)c2C1)C1(Cn2cccn2)CC1 | 14 |
| Cc1cc2oc(=O)cc(C)c2cc1NC(=O)c1sc(C(C)C)nc1C | 3 |
| CN(C)CCOCc1nnc2n1CCN(S(C)(=O)=O)C2 | 5 |
| Cc1cnn(Cc2nc(-c3ccc(NC(=O)c4ccc(F)cc4Cl)cc3)oc2C)c1 | -45 |
| CN(C)c1nc2c(c(=O)[nH]1)CCN(C(=O)c1ccccc1-c1ncc[nH]1)C2 | 0 |
| CCOC(=O)C(NC(=O)c1ccccc1Cl)(Nc1ccc(C)cc1)C(F)(F)F (stereo unspecified) | 195 |
| Cc1cc(Nc2cnccn2)cc(C2CCCN(C(=O)CN3CCc4ccccc4C3)C2)n1 (stereo unspecified) | 28 |
| Cc1noc(C)c1S(=O)(=O)N(C)C[C@H]1OCCCC[C@@H](C)Oc2ccc(NC(=O)CCC(F)(F)F)cc2C(=O)N([C@H](C)CO)C[C@@H]1C | 76 |
| Fc1cccc(CC2CN(Cc3cccs3)CCO2)c1 (stereo unspecified) | -42 |
| CC(C)c1ccc(S(=O)(=O)N2CCC3(CC2)COCCN(Cc2cccnc2)C3)cc1 | -31 |
| Cn1cccc1/C=C1\C(=O)NC(=O)c2ccccc21 | 5 |
| COc1ccc2nc(Cn3cnc4ccc(F)cc4c3=O)[nH]c2c1 | -9 |
| CO[C@H]1CCN(Cc2ccc3c(c2)OCO3)[C@H]1Cc1cccnc1 | -4 |
| C[C@H]1CN([C@@H](C)CO)C(=O)c2cccc(N(C)C)c2O[C@@H]1CN(C)Cc1ccncc1 | 1 |
| Cc1ccc(S(=O)(=O)N2C[C@@H](O)COC[C@H]3O[C@@H](CC(=O)NCc4ccc5c(c4)OCO5)CC[C@@H]32)cc1 | -1 |
| CN1c2cc(F)ccc2C(=O)NC12CCN(C(=O)NCCc1ccccc1)CC2 | -3 |
| Cc1cccc(COCC2CC3OCCN(Cc4ccco4)C3C2)n1 (stereo unspecified) | 3 |
| Cc1cc(C(=O)CN2CCC(O)(CN3CCCCC3c3cccnc3)CC2)c(C)s1 (stereo unspecified) | 1 |
| CC(C)NC(=O)Nc1ccc2c(c1)C(=O)N([C@H](C)CO)C[C@H](C)[C@H](CN(C)C(=O)C1CCCCC1)OCCCC[C@@H](C)O2 | 173 |
| CN1C(=O)c2cc(NC(=O)c3cscn3)ccc2OC[C@@H]2O[C@H](CC(=O)N3CCOCC3)CC[C@H]21 | 0 |
| CO[C@H]1CN(C)C(=O)c2cc(NC(=O)Nc3ccccc3F)ccc2OC[C@H](C)N(CCC(F)(F)F)C[C@@H]1C | -16 |
| O=C(C[C@@H]1CC[C@@H]2[C@H](COC[C@@H](O)CN2C(=O)Nc2ccc(Cl)cc2)O1)NCC1CCCCC1 | -48 |
| CCOC(=O)C(=O)Nc1ccc(-c2nc(-c3ccccc3)co2)cc1 | 16 |
| Cc1ccc(S(=O)(=O)Nc2cncc(C(=O)Nc3ccc(F)cc3)c2)c(C)c1 | 8 |
| Cn1cnc2ccc(NC(=O)Cc3cc(Cl)c4c(c3)OCCCO4)cc21 | -9 |
| Cc1ccc(-c2ccnc(NC(C)Cc3ncccc3C)n2)c(C)n1 (stereo unspecified) | -27 |
| CS(=O)(=O)N1CCO[C@H]2CCN(C(=O)C3CC=CC3)C[C@H]21 | 8 |
| CC(=O)N(CN1C(=O)c2ccccc2C1=O)c1ccccc1 | -17 |
| CCN1c2cc(F)ccc2C(=O)NC12CCN(C(=O)c1ccccc1OC)CC2 | -26 |
| Cc1cc(C(=O)N2CC[C@H](O)[C@@H](O)C2)ccc1-n1cccc1 | 0 |
| COc1ccc(NC(=O)CSc2nc(N)c(C(=O)Nc3ccc(OC)cc3)s2)cc1 | 103 |
| O=C(O)CCC(=O)N1C[C@@H]2CCN(C(=O)c3ccco3)[C@@H]2C1 | 0 |

3 compounds already listed, sorted by formula weight, highest first:
| compound | Tgondii IFNg |
| --- | --- |
| CCN1c2cc(F)ccc2C(=O)NC12CCN(C(=O)c1ccccc1OC)CC2 | -26 |
| O=C(O)CCC(=O)N1C[C@@H]2CCN(C(=O)c3ccco3)[C@@H]2C1 | 0 |
| Cc1cc(C(=O)N2CC[C@H](O)[C@@H](O)C2)ccc1-n1cccc1 | 0 |

The listing continues.
| compound | Tgondii IFNg |
| --- | --- |
| COC(=O)c1ccc(C(=O)Nc2ccc(C(F)(F)F)cc2)nc1 | -25 |
| CCCn1cc(C(=O)N2CC(Oc3ccccc3OC)C2)c(C)n1 | -11 |
| O=C(O)Cc1ccc(OCCNC[C@H](O)c2ccccc2)cc1 | 16&23 |
| Cc1ccc(C)c(OC(C)C(=O)NCCc2nc(-c3cccnc3)no2)c1 (stereo unspecified) | -17 |
| Nc1cc(=O)[nH]c(SCC(=O)NCc2ccccc2)n1 | -69 |
| CCN1c2cc(C)ccc2-n2cccc2C12CCN(C(=O)Nc1cccc(Br)c1)CC2 | -84* |
| Cc1nc(NCC2CC2)nc2c1COCC21CCN(C(=O)C2CC2)C1 (stereo unspecified) | 2 |
| NC(=O)c1nsc(C(=O)N(CC(=O)NC2CCCC2)Cc2ccc3c(c2)OCO3)c1N | 24 |
| Cc1ccc(C(=O)N2CCc3c(CNc4ncccn4)nn(C)c3C2)cc1F | 3 |
| O=C(c1ccccc1Cl)N1CCC(c2n[nH]c(Cc3ccccc3)n2)CC1 | -14 |
| COC(=O)c1ccc(NC(=S)NC(C)(C)C)cc1 | 29 |
| CCOCCCNC(=O)c1ccc2ccc(N3CCN(CC4CC4)CC3)n2c1 | -50 |
| CCc1nnc(SCC(=O)N2CCN(C)C3(CCN(C)CC3)C2)o1 | -7 |
| O=c1[nH]nc(C2CCCN(S(=O)(=O)N3CCCC3)C2)n1-c1ccccc1 (stereo unspecified) | -12 |
| O=C(Cc1cccc(F)c1)N1CC[C@@H](O)[C@@H]1Cc1ccccc1 | -5 |
| CN(C)C(=O)[C@H]1C[C@@H]2OCC[C@@H]2N(Cc2ccco2)C1 | -34 |
| COCC(=O)Nc1cc(C)cn(Cc2ccc(F)cc2)c1=O | 298 |
| CC(C)CC(NS(=O)(=O)c1ccc2[nH]c(=O)ccc2c1)C(=O)N1CCC(C)CC1 (stereo unspecified) | -13 |
| COCC1c2nnn(C)c2CCN1Cc1ccc2c(c1)OCO2 (stereo unspecified) | i |
| O=C(Cn1c(=O)ccc2cc(S(=O)(=O)N3CCCC3)ccc21)N1CCN(c2ccccc2F)CC1 | 69 |
| C=CCOCC1CN(C(=O)c2ccc[nH]2)Cc2ccnn2C1 (stereo unspecified) | -5 |
| Cc1ccc(CN2CCC3C(C[C@@H](CN(C)C)N3C)C2)s1 (stereo partly specified) | -1 |
| O=C(c1ccoc1)N1CCOCC2(CCN(c3ncccn3)C2)C1 (stereo unspecified) | 93 |
| CCN1CC[C@@]2(CN(C(=O)[C@H]3CCCO3)C[C@H]2c2ccccc2)C1=O | -3 |
| Cc1nnsc1CN(C)C(=O)C1=NNC(=O)CC1 | -10 |
| COc1ccccc1Nc1nc(-c2ccc(Cl)cc2)nc2ccccc12 | -10 |
| CCc1c(C)nc2n(c1=O)C(CS(=O)(=O)c1ccc3ccccc3c1)CS2 (stereo unspecified) | 21 |
| OC(CN1CCOCC1)c1ccc(-c2cccc3ccnn23)cc1 (stereo unspecified) | -17 |
| O=C(O)c1ccc(S(=O)(=O)c2ccc3c(c2)C(=O)N(C2CCCCC2)C3=O)cc1 | 2 |
| CN(C)CCNC(=O)C1CC2(CO1)CN(C(=O)c1ccccc1)c1ccccc12 (stereo unspecified) | 20 |
| COCCN1C(=O)CCC12CCCN(C(=O)NCc1ccccc1)CC2 (stereo unspecified) | 1 |
| CCc1ccc(N2CC(C(=O)Oc3ccccc3OC)CC2=O)cc1 (stereo unspecified) | -6 |
| C=CCN1CC(C(=O)N(CC)Cc2cc(Cl)ccc2OC)CCC1=O (stereo unspecified) | 52 |
| COc1cc(OC)c(-c2nc3cnccc3n2C)cc1OC | -2 |
| O=C(NC1CCCCCC1)c1nc(Nc2ccccc2)c2ccccc2n1 | -85* |
| CO[C@@H]1CN(C)C(=O)c2cc(NS(C)(=O)=O)ccc2OC[C@@H](C)N(C(=O)C2CCOCC2)C[C@H]1C | 56 |
| NC(N)=NC(=O)c1nc(Cl)c(N2CCCCCC2)nc1N | 17 |
| CN(CC(=O)Nc1cccnc1)S(=O)(=O)c1ccc(Cl)cc1 | -53 |
| COCC(=O)N1CCc2ncnc(Nc3ccc(C)cc3)c2CC1 | -65 |
| Clc1cccc(-c2nnc(-c3nc(NC4CCCC4)c4ccccc4n3)o2)c1 | -77* |
| Cc1cccnc1CC(C)N(C)C(=O)c1cc(-c2ccccc2)on1 (stereo unspecified) | 15 |
| O=C(NCc1ccc(-c2cccs2)cc1)c1ncoc1-c1ccccc1 | 2 |
| CCS(=O)(=O)N1CCN(C(=O)CN2CCC(c3csnn3)CC2)CC1 | 20 |
| Cc1cc(C)cc(C(=O)N2CCC(CO)(CCOc3ccccc3)CC2)c1 | -9 |
| CC(C)=CCN1CCNC(=O)C1CC(=O)O (stereo unspecified) | -2 |
| O=C(c1ccc2c3c(cccc13)CC2)C1CCCN(C(=O)/C=C/c2cnc[nH]2)C1 (stereo unspecified) | -18 |
| CCC1(CC)NC(=O)N(CC(=O)Nc2nc(-c3cc(C)sc3C)cs2)C1=O | 11 |
| COc1ccc(-c2nnc3n2C2(CCCC2)Cc2cc(OC)c(OC)cc2-3)cc1 | -11 |
| Cc1ccc(N2CCC3(CC(=O)N(c4ccc(C#N)cc4)C3)C2)nn1 (stereo unspecified) | -7 |
| C[C@H](CO)N1C[C@H](C)[C@@H](CN(C)C(=O)c2ccccc2)Oc2ncc(C#Cc3ccccc3)cc2C1=O | -88* |
| NS(=O)(=O)c1ccc(Cn2ccnc2-c2ccccn2)cc1 | 5 |
| Cc1cc(C(=O)N2CCC(COc3ccccn3)CC2)c2cccc(Cl)c2n1 | 29 |
| O=C(CCC1C(=O)Nc2ccccc21)Nc1nnc(C2CCCCC2)s1 (stereo unspecified) | 6 |
| COc1cc(/C=C/C(=O)N2CCCC2)cc(OC)c1OC | -30 |
| COc1ccc(CN(C)C[C@H]2OCc3cnnn3CCCC(=O)N([C@@H](C)CO)C[C@@H]2C)cc1 | 31 |
| Cc1noc(C)c1NC(=O)Nc1ccc2c(c1)C(=O)N(C)[C@H]1CC[C@@H](CC(=O)N[C@@H]3CCN(Cc4ccccc4)C3)O[C@@H]1CO2 | -2 |

Further results:
| compound | Tgondii IFNg |
| --- | --- |
| COCCN1C(=O)N(Cc2ccccc2)C2(CCN(Cc3cccc(-c4ccccc4C)c3)CC2)C1=O | 4 |
| OC(CNC1CCN(Cc2ccccc2)CC1)COc1ccc2c(c1)OCO2 (stereo unspecified) | ? |
| NS(=O)(=O)c1cc(C(=O)O)cc(N2CCCC2)c1Oc1ccccc1 | 0 |
| Cc1ccc(SCCNS(C)(=O)=O)cc1 | 3 |
| O=C(Cn1c(=O)cc(-c2nc(C3CC3)no2)c2ccccc21)NCCc1ccc(Cl)cc1 | 122 |
| O=C(CC1COCCN1)NCCN1N=C(c2ccccc2)CCC1=O (stereo unspecified) | 10 |
| CCCC(C(=O)N1CCc2c(nc(N(C)C)nc2N(C)C)C1)n1cccc1 (stereo unspecified) | -17 |
| COc1cc2c(cc1OC)C(c1c(-c3ccccc3)noc1C)=NCC2 | -38 |
| COC(=O)C(NC1CCN(C(=O)c2ccccc2)CC1)c1cccc(C)c1 (stereo unspecified) | 5 |
| COC(=O)[C@@H]1C[C@@H](NC(=O)COc2cccnc2)CN1C | -44 |
| CC1CCN(S(=O)(=O)c2ccc3c(ccc(=O)n3CC(=O)N3CCC4(CC3)OCCO4)c2)CC1 | 65 |
| CCOc1ccccc1CNC(=O)c1nc(Nc2ccccc2)c2ccccc2n1 | -64 |
| c1cn(-c2cc3c(cc2-n2cnnc2)OCCO3)cn1 | -20 |
| Cc1cc(C)c(C(=O)N2Cc3cnc(-c4ccccc4)nc3C2)cn1 | -10 |
| COc1ccc2c3c([nH]c2c1)[C@@H](CO)N(S(=O)(=O)c1ccc(C)cc1)CC31CN(Cc2ccccc2)C1 | 39 |
| Cc1cc(CC(C)NC(=O)CN2CCCN(C)CC2)n[nH]1 (stereo unspecified) | 5 |

Brought forward from above: 2 entries, then new ones.
| compound | Tgondii IFNg |
| --- | --- |
| COc1ccc2c3c([nH]c2c1)[C@@H](CO)N(S(=O)(=O)c1ccc(C)cc1)CC31CN(Cc2ccccc2)C1 | 39 |
| Cc1cc(CC(C)NC(=O)CN2CCCN(C)CC2)n[nH]1 (stereo unspecified) | 5 |
| CS(=O)(=O)N1[C@@H]2Cn3c(cccc3=O)[C@H]1[C@@H](C(=O)NCc1ccc(F)cc1)[C@@H]2CO | -1 |
| COCC1c2nnn(CC3CC3)c2CCN1Cc1ccncc1 (stereo unspecified) | -11 |
| c1ccc(-c2ncn(CC3CCCO3)c2-c2ccc(-n3cncn3)cc2)cc1 (stereo unspecified) | 13 |
| COC(=O)CC(=O)CCc1c(C)noc1C | -51 |
| O[C@@H]1CN(c2ncccc2Cl)CC[C@H]1N1CCN(c2ccccn2)CC1 | -11 |
| COCC(=O)N1CCC2(CCOC2)C1 (stereo unspecified) | 17 |
| CC(C)C#Cc1ccc([C@@H]2[C@H](CO)N3C(=O)CN(S(=O)(=O)c4ccccc4)C[C@@H]23)cc1 | -28 |
| Cc1cc(NC(=O)c2cc(Cl)cc(Cl)c2)n(-c2ccccc2)n1 | -41 |
| COc1ccc(Oc2nc(-c3ccccc3)ns2)cc1 | 251 |
| O=C(O)c1cccc(-c2ccc3c(c2)OCO3)c1 | -75* |
| COC(=O)[C@H]1N[C@H]2c3ccc(C4=CCCCC4)c(=O)n3C[C@H]2[C@@H]1CO | 3 |
| CCN(CCNS(=O)(=O)c1ccc2[nH]c(=O)ccc2c1)Cc1ccccc1 | -29 |
| COCC12CCCOC1CCN(C(=O)c1ccc3c(c1)OCO3)C2 (stereo unspecified) | -30 |
| Cc1ccc(-c2cc(C(=O)N3CCN(S(=O)(=O)N4CCOCC4)CC3)no2)cc1 | -1 |
| CC(=O)Nc1nonc1-c1nc2ccccc2n1C | -42 |
| CN1[C@H](CO)[C@H]2c3ccccc3N(C(=O)Nc3cc(F)ccc3F)C[C@H]21 | 0 |
| Cc1ccc2nc(Cc3ccc(NC(=O)CCc4nc5ccccc5[nH]4)cc3)[nH]c2c1 | 223 |
